Bioassay records deposited in PubChem by several laboratories.
eIF4H FP inh – inhibitors of RNA binding by human eIF4H. Q15056. inhibition, % at 35 µM. eIF4H fluorescence polarization binding assay. 290,000 compounds, 0.94% hits;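 active = 50% or more with normal probe brightness, or confirmed in later tests; inconclusive = above 50% with abnormal brightness, or retests that disagree; inactive = below 50% or failed in later tests; about a fifth of its hits are not listed in these tables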;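 note: calls also rest on retests at 20 µM and on dose response follow-up; 0% = protein and probe with vehicle and 100% = probe without protein; strong numbers were not always called active; many hits fall short of the cut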
MT1-MMP act inh – MT1-MMP (human) activation inhibition | P50281 | HT1080 RFP-PRO-GFP cells, GFP/RFP ratio fluorescence, overnight; percent of plate control window, DMSO zero | GFP/RFP ratio change, % at 20 µM | 360,000 compounds, 0.061% hits | AID 651647;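 active = GFP/RFP ratio change of at least 30% with cell ATP level not reduced by more than half and red fluorescence within 50% of control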; note: strong numbers were not always called active
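system = RFP-PRO-GFP reporter HT1080 cells | dosing = 20 µM single dose, 1% DMSO | timing = overnight cell settling, then overnight compound exposure, 37 °C, 5% CO2 | read-out basis = GFP/RFP fluorescence ratio | controls = DMSO and RFP-L50D-GFP cell wells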
CSC inhib – cancer stem cell inhibition; cancer stem cell-like cells viability, luminescence; inhibition, % at 7.5 µM; 300,000 compounds, 1.1% hits;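 active = mean at 75% or more and at least half the replicates too; inconclusive = mean and replicates disagree; tested in HMLE shEcad cells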;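 note: 0% = median of negative and 100% = median of positive control wells; the first replicate is given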
Rce1 inhib – yeast Ras-converting enzyme inhibition. calls only. yeast membranes, quenched prenylated peptide cleavage fluorescence. 290,000 compounds, 0.27% hits. Q03530;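 active = fall in fluorescence gain of 50% or more versus controls, with final raw signal at or below 3038400; inconclusive = same 50% fall but final raw signal above 3038400; inactive = fall in fluorescence gain under 50%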;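 note: plate controls were neutral control wells for no effect and wells lacking membranes for full effect; tested at 10 µM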
Target sequence (Q03530 whole entry, looked up): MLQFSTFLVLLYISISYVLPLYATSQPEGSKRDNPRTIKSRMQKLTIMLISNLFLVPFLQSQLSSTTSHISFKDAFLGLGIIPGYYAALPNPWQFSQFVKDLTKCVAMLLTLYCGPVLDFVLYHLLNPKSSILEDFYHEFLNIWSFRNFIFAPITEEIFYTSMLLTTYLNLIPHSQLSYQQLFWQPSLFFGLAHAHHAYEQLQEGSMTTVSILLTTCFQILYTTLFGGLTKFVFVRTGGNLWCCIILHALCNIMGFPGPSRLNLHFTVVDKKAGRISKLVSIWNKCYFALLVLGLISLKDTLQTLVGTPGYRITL
Yeast UUG start – yeast start codon fidelity modulation; S. cerevisiae UUG-firefly luciferase reporter, luminescence/redox ratio; activity score, % at 18.7 µM; 350,000 compounds, 0.13% hits;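 active = replicate mean at a twofold rise or more, about +100% in these data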;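 note: firefly luciferase made from a UUG start codon reports start codon fidelity; reporter light over untreated wells divided by growth signal over untreated wells; some hits fall short of that in this replicate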
PABP FP inh – PABP-poly(A) binding inhibition; P11940; PABP-poly(A) RNA binding, fluorescence polarization; inhibition, % at 35 µM; 290,000 compounds, 1% hits;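 active = 50% or more with normal probe brightness, or confirmed in later tests; inconclusive = above 50% with abnormal brightness, or retests that disagree; inactive = below 50% or failed in later tests; about a fifth of its hits are not listed in these tables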;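 note: calls also rest on retests at 20 µM and on dose response follow-up; controls were probe without protein and protein plus probe with vehicle; some compounds called inactive have numbers as strong as hits; many hits fall short of the cut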
HIV Env fusion – HIV envelope-mediated fusion inhibition. HeLa-JRFL Env/CEM21 cell fusion, luciferase. inhibition, % at 12.3 µM. 360,000 compounds, 1.1% hits;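 active = mean replicate inhibition score of at least 50 and every replicate individually at or above 50; inconclusive = only one of the two criteria met; inactive = mean below 50 and not all replicates reaching 50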;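 note: 0% = plate neutral controls and 100% = maraviroc near 300 nM; one replicate is shown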
eIF4H FP inh retest – recorded beside eIF4H FP inh, whose call it bears; inhibition, %; compound at 20 µM; confirmation average;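 mean of two retest wells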
PABP FP inh retest – recorded beside PABP FP inh, whose call it bears; inhibition, %; compound at 20 µM; confirmation repeats;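 mean of two retest wells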
MT1-MMP act inh RFP – also measured in MT1-MMP act inh; calls as there; RFP signal change, %; measured here: RFP expression control read;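 0 = vehicle wells; hits needed this value within 50% of zero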
* marks the source's active call; other numbers are inactive results; i = inactive; ? = inconclusive; nt = not tested or not shown.

SMILES | eIF4H FP inh | MT1-MMP act inh | MT1-MMP act inh RFP | CSC inhib | Rce1 inhib | Yeast UUG start | PABP FP inh | HIV Env fusion | others
NC(=O)NC(CC(=O)N1CCc2ccccc2C1)c1ccc(Cl)cc1 (stereo unspecified) | -4 | 0 | 0 | -10 | i | -2 | 13 | -4
COc1cc(OC)cc(C(=O)N[C@H](C(=O)NC23CC4CC(CC(C4)C2)C3)C(C)C)c1 | -4 | -20 | -15 | 29 | i | 8 | 2 | -3
COc1ccc(N2CC(C(=O)Nc3nnc(SCC(=O)NC(C)(C)C)s3)CC2=O)cc1 (stereo unspecified) | 7 | -5 | -3 | -17 | i | nt | 4 | -8
Cc1ccc(/C=C/C(=O)OCC(=O)N(C)c2c(N)n(Cc3ccccc3)c(=O)[nH]c2=O)o1 | nt | 5 | 7 | nt | nt | -2 | nt | -11
Cc1ccc(N2C3=C(C(=O)CC(C)(C)C3)C(c3cn(C)nc3C)C3=C2CC(C)(C)CC3=O)cc1 | nt | -37 | 12 | 6 | nt | 22 | nt | 34
CCOC(=O)c1c(C)[nH]c(C)c1C(=O)COC(=O)c1ccc([N+](=O)[O-])s1 | nt | -3 | -2 | 4 | nt | 4 | nt | nt
COc1ccc(OCC(=O)N/N=C(\CCC(=O)O)c2cccs2)cc1 | 2 | 1 | 3 | 1 | i | -5 | -9 | -4
N#C/C(=C\C=C\c1ccccc1)c1nc(-c2ccc3c(c2)OCO3)cs1 | ? | -12 | 1 | 21 | i | nt | -2 | -2
COc1ccc(CNc2ccc3c(c2)nc(C)n3C)cc1 | -7 | 4 | 3 | 1 | i | 2 | 16 | nt
COc1ccccc1N(C)S(=O)(=O)c1ccc(C(=O)NCc2ccc3c(c2)OCO3)cc1 | -5 | 1 | -7 | 13 | i | nt | 33 | -8
CCn1c(/C=C/c2ccc(O)c(O)c2)nc2ccccc2c1=O | 70 | -19 | -3 | 42 | i | -10 | 30 | 15 | eIF4H FP inh retest=41;PABP FP inh retest=25
CCN(CC)CCCN1CC(O)=C(c2nc3ccccc3s2)C1=N | -6 | 3 | 1 | -9 | i | nt | 1 | nt
Cc1ccc(C)c(N2CCN(C(=O)C34CC5CC(C3)CC(n3nnc(C)n3)(C5)C4)CC2)c1 | -7 | -6 | -30 | -5 | i | nt | -3 | 38
O=C(Cc1ccccc1)N1CCN=C1SCc1ccc([N+](=O)[O-])cc1 | -9 | -1 | -7 | 10 | i | -17 | -4 | 12
N#CCC(=O)Nc1ccc(C(=O)NNC(=S)NC2CCCCC2)cc1 | nt | -4 | 4 | -21 | nt | -31 | nt | 33
CCc1nc2c(sc3nc4c(cc32)COC(C)(C)C4)c(=O)n1Cc1ccco1 | -2 | -8 | -10 | 19 | i | 4 | 0 | nt
COCCn1c(SCC(=O)c2[nH]c(C)c(C(C)=O)c2C)nc2ccccc2c1=O | -4 | -2 | -2 | 18 | i | -11 | -6 | 17
CCOC(=O)C1(Cc2ccccc2C)CCCN(C(=O)CCc2c(C)noc2C)C1 (stereo unspecified) | 3 | -1 | -4 | -14 | i | -2 | 2 | 1
CCCNC(=O)N1c2ccccc2Sc2ccccc21 | -3 | -1 | -2 | 3 | i | nt | 2 | -1
CCOC(=O)CN1C(=O)C2Cc3ccccc3CN2C1=S (stereo unspecified) | 0 | 3 | 8 | 17 | i | -15 | 7 | nt
O=c1oc(-c2ccccc2Cl)nc2ccsc12 | -6 | 3 | 6 | 6 | i | -20 | -6 | nt
CCOC(=O)CC(C#N)c1cn(C)c2ccccc12 (stereo unspecified) | -3 | -4 | 5 | -4 | i | -6 | 3 | 7
CCCCNC(=O)CCCCn1c(=S)[nH]c2c([nH]c3ccc(OC)cc32)c1=O | -4 | -5 | 3 | nt | i | nt | 1 | -11
CC(=O)N1CCN(S(=O)(=O)c2cccc(C(=O)Nc3nc4ccccc4[nH]3)c2)CC1 | -8 | 2 | 4 | nt | i | -7 | -12 | nt
Nc1ccn([C@@H]2O[C@H](C(=O)NCc3ccc4c(c3)OCO4)[C@@H](O)[C@H]2O)c(=O)n1 | nt | 3 | 2 | nt | nt | 20 | nt | 77*

Reprinted from the part before: four compounds, then new ones.
SMILES | eIF4H FP inh | MT1-MMP act inh | MT1-MMP act inh RFP | CSC inhib | Rce1 inhib | Yeast UUG start | PABP FP inh | HIV Env fusion | others
CCOC(=O)CC(C#N)c1cn(C)c2ccccc12 (stereo unspecified) | -3 | -4 | 5 | -4 | i | -6 | 3 | 7
CCCCNC(=O)CCCCn1c(=S)[nH]c2c([nH]c3ccc(OC)cc32)c1=O | -4 | -5 | 3 | nt | i | nt | 1 | -11
CC(=O)N1CCN(S(=O)(=O)c2cccc(C(=O)Nc3nc4ccccc4[nH]3)c2)CC1 | -8 | 2 | 4 | nt | i | -7 | -12 | nt
Nc1ccn([C@@H]2O[C@H](C(=O)NCc3ccc4c(c3)OCO4)[C@@H](O)[C@H]2O)c(=O)n1 | nt | 3 | 2 | nt | nt | 20 | nt | 77*
Clc1ccc(C2[C@H]3CN(Cc4cccnc4)[C@H](c4ccccc4)C34CC2(c2cccnc2)C4)cn1 (stereo partly specified) | -5 | -7 | -4 | 4 | i | -17 | 1 | -10
CC(C)Oc1ccc(N2CC(C(=O)Nc3ccccn3)CC2=O)cc1 (stereo unspecified) | -2 | 0 | 5 | 2 | i | nt | 2 | -6
C=CCNC(=O)c1ccc(OC)cc1 | -13 | 0 | 7 | -26 | i | -20 | -1 | 2
Clc1ccc(-c2nnc3sc(-c4ccc(Br)o4)nn23)c(Cl)c1 | 4 | -5 | 3 | 7 | i | -8 | -7 | nt
CCOC(=O)N1CCN(c2c(NCCN3CCN(Cc4ccccc4)CC3)c(=O)c2=O)CC1 | -8 | 1 | 0 | 8 | i | -30 | 2 | -7
Cn1ncc2cc(NC(=S)NC(=O)c3ccccc3)ccc21 | -1 | 0 | -6 | 3 | i | -23 | -2 | -92
Cc1cc2c3c([nH]c2cc1S(=O)(=O)N1CCC2(CC1)OCCO2)CCCC3=O | -1 | 1 | -21 | -6 | i | -2 | 3 | 12
Cc1nc(C)n(CC(=O)N2CCCC(C(=O)c3ccc(Cl)cc3C)C2)n1 (stereo unspecified) | 1 | 1 | 0 | -2 | nt | nt | 3 | -8
Cn1c2c(c(=O)n(C)c1=O)C(NS(=O)(=O)c1ccc(Cl)cc1)(C(F)(F)F)C(=O)N2 (stereo unspecified) | 7 | 3 | 5 | -18 | i | -5 | 8 | nt
COc1ccc(S(=O)(=O)CCC(=O)NCc2ccc(C)o2)cc1 | 24 | 4 | 6 | 17 | i | -19 | 15 | -14
CCOC(=O)c1c(NC(=O)CSc2nnc(CNc3ccc(F)cc3)o2)sc(C(C)=O)c1C | 54 | -3 | 7 | 7 | i | nt | 9 | -13 | eIF4H FP inh retest=11;PABP FP inh retest=4
O=C(NCc1ccc(Cl)cc1)c1ccc2c(=O)n(CC3CCCO3)c(=S)[nH]c2c1 (stereo unspecified) | 7 | 6 | -11 | 32 | i | -4 | 0 | 12
CCOC(=O)N1CCc2c(sc3ncn(Cc4ccc(F)cc4)c(=O)c23)C1 | -3 | 4 | -1 | nt | i | nt | 6 | -3
CCc1nc2ccc(C(=O)NCCCN3CCN(c4ccc(F)cc4)CC3)cc2nc1CC | 3 | 5 | 2 | -10 | i | -4 | 7 | 20
Cc1ccc(S(=O)(=O)Nc2ccc3cn[nH]c3c2)c(C)c1 | nt | 4 | -6 | nt | nt | -28 | nt | -1
Cc1ccc(C(C(=O)NC2CCCC2)N(Cc2ccc(F)cc2)C(=O)c2snc(C(N)=O)c2N)o1 (stereo unspecified) | 0 | 2 | 3 | 11 | i | -3 | -4 | 65*
CCOc1ccc(CCNC(=O)c2ccc(S(=O)(=O)N3CCCC3)cc2)cc1OCC | nt | 0 | 0 | 2 | i | -5 | nt | nt
CCCCOC(=O)c1ccc(Nc2ncnc3nc[nH]c23)cc1 | -13 | 6 | -3 | 6 | i | -9 | -25 | -25
O=C1CCCN2N=C(SCC(=O)Nc3cccc(C(F)(F)F)c3)SC2=N1 | 13 | -4 | -29 | nt | i | -2 | 0 | ?
Cc1ccccc1CN(C)C(=O)c1ccc2ccccc2n1 | -8 | 1 | 1 | -9 | i | -1 | 5 | -2
COc1ccc(NC(=S)Nc2ccccc2SC)c(OC)c1 | 0 | -1 | 3 | 4 | i | nt | -5 | 3
Cc1c(Cl)c([N+](=O)[O-])nn1CCCC(=O)N1CCN(c2ccccc2)CC1 | 6 | 10 | 2 | nt | i | 1 | -8 | nt
N#CC1(Cc2ccccc2Cl)c2ccccc2C=CN1C(=O)c1ccccc1 (stereo unspecified) | -7 | -5 | -5 | 15 | i | -1 | -6 | nt
O=C(CN1CCN(S(=O)(=O)N2CCCCC2)CC1)Nc1ccc(Cl)c(Cl)c1 | 4 | 1 | -1 | -4 | i | -4 | -2 | 16
O=C(N/N=C\c1ccc(Cl)s1)c1cccs1 | -6 | -4 | -2 | 8 | i | -8 | 9 | nt
Following part:
SMILES | eIF4H FP inh | MT1-MMP act inh | MT1-MMP act inh RFP | CSC inhib | Rce1 inhib | Yeast UUG start | PABP FP inh | HIV Env fusion | others
Cc1cc(NC(=O)CC2(CC(=O)O)CCCC2)n(C)n1 | -3 | 3 | 2 | -8 | i | -4 | 1 | 8
CCc1ccc(CN2C(=O)CCC2(C)C(=O)NC2CCCC2)cc1 (stereo unspecified) | -4 | -1 | -1 | -7 | i | -3 | 4 | -44
CC(C)=CCN1CCN(Cc2ccc(Sc3nncn3C)o2)CC1CCO (stereo unspecified) | 0 | 0 | -2 | -12 | i | nt | -3 | -4
O=C(O)CCCC(=O)Nc1ccccc1Oc1ccccc1 | -4 | 1 | 5 | -9 | i | nt | 6 | -2
CCN1CCc2c(sc(NC(=O)c3ccc(S(=O)(=O)N4CC(C)OC(C)C4)cc3)c2C(N)=O)C1 (stereo unspecified) | -21 | -3 | 6 | -4 | i | -20 | -14 | -2
COc1ccc(CCNC(=O)CCS(=O)(=O)c2ccc3c(c2)NC(=O)C(C)S3)cc1OC (stereo unspecified) | -4 | 2 | -1 | -5 | i | -5 | 1 | -7
O=C(COC(=O)CN1C(=O)NC2(CCCC2)C1=O)Nc1c(Cl)cccc1C(F)(F)F | nt | -1 | 6 | -11 | i | -2 | nt | nt
Cc1cc(CNC(=O)COC(=O)Cn2[nH]c(=O)c3ccccc3c2=O)cc(C)c1O | nt | 2 | 2 | nt | i | -12 | nt | 12

Sorted by SMILES length (lowest first): some entries from above
SMILES | eIF4H FP inh | MT1-MMP act inh | MT1-MMP act inh RFP | CSC inhib | Rce1 inhib | Yeast UUG start | PABP FP inh | HIV Env fusion | others
Cn1ncc2cc(NC(=S)NC(=O)c3ccccc3)ccc21 | -1 | 0 | -6 | 3 | i | -23 | -2 | -92
CCc1ccc(CN2C(=O)CCC2(C)C(=O)NC2CCCC2)cc1 (stereo unspecified) | -4 | -1 | -1 | -7 | i | -3 | 4 | -44
Cc1cc(CNC(=O)COC(=O)Cn2[nH]c(=O)c3ccccc3c2=O)cc(C)c1O | nt | 2 | 2 | nt | i | -12 | nt | 12

Hits appear at their usual frequency; overall some 2.9% were active at least once.
